Ecoli growth – blocks Escherichia coli growth; OD600, 23 h; active compounds read low; OD600 absorbance (no concentration beside the values); actives 0.21% (n = 330,000);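 active = OD600 absorbance below the run mean of sample wells minus 3.6 SD, in any replicate, cut at about 0.56 in these data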;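 note: stock transfer was 300 nL into about 60 µL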
A1 inh – inhibitors of the anti-apoptotic protein A1, read as caspase activation; MEF A1-2A-BIM cells, Caspase-Glo 3/7 luminescence, 3 h; percent of clofoctol response, vehicle zero; caspase activation, % (no concentration beside the values); actives 0.066% (n = 330,000); AID 2462;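 active = over half of replicate activation scores above 10%, or exactly half above 10 with the replicate mean above 10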;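 note: wells of about 30 µL received 50 nL stock; many hits fall short of the cut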
Beta apoptosis – blocks beta cell apoptosis | INS-1E cytokine-induced death, ATP luminescence, 48 h; percent of positive-control rescue, neutral wells zero | protection from apoptosis, % (test concentration not listed) | actives 0.8% (n = 300,000) | AID 435005;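 active = all replicates at 75% or more, or half of them and the mean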;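 note: 0% = cytokine-treated negative control wells and 100% = positive control rescue; higher means more ATP so stronger rescue from cytokine killing; wells of about 40 µL received 100 nL stock; the first replicate is given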
T cruzi inh – blocks replication of Trypanosoma cruzi; AID 1885; T. cruzi beta-gal in NIH3T3, luminescence, 90 h; inhibition, % (test concentration not listed); actives 1.4% (n = 300,000);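 active = mean inhibition across valid replicates above about 55%, limit read from the data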;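 note: signal also drops with host cell toxicity which is not excluded here; 0% = plate median of DMSO wells and 100% = zero luminescence signal; higher percent means less beta-gal luminescence so fewer parasites; stock transfer was 50 nL into about 50 µL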
UCH37 DUB inh – inhibitors of human deubiquitinating enzyme UCH37; actives 0.33% (n = 330,000); inhibition, % (no concentration beside the values); purified proteasome/UCH37, Ub-AMC cleavage fluorescence;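 active = mean of two replicates above 20%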;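 note: 0% = compound-free wells with enzyme and 100% = wells lacking proteasome; stock transfer was 100 nL into about 20 µL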
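System: Proteasome-associated human UCH37 deubiquitinase; Input: 0.15 nM proteasome in added enzyme buffer; Also added: Ub-AMC substrate from 1 µM stock; Incubation: 30 min compound-proteasome preincubation then 25 min substrate reaction, room temperature; Detection: fluorescence, ex 355 nm, em 460 nm; Read-out: % inhibition of Ub-AMC cleavage fluorescence; Benchmarks: no-proteasome and no-compound wells.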
FGF22 binding – shifts melting point of recombinant human FGF22. Q9HCT0. recombinant FGF22 thermal shift, SYPRO orange fluorescence; percent of sucrose octasulfate shift, DMSO zero. calls only at 9.99 µM. actives 1.5% (n = 340,000);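 active = melting point raised past a set limit in the mean and every replicate; three in four hits are not shown here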
Target sequence (Q9HCT0 whole entry, looked up): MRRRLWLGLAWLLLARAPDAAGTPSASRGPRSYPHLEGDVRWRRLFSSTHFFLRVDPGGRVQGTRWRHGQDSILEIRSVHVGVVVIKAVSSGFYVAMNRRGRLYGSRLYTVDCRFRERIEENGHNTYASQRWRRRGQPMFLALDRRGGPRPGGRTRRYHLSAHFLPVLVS
MLL AF4-AF9 inh – inhibitors of human MLL-AF4/AF9 interaction; AlphaScreen, biotin-AF4 peptide binding to FLAG-AF9; inhibition, % at 10 µM; actives 0.47% (n = 350,000);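 active = every replicate reaching a set inhibition limit, whatever the replicate mean, cut at about 25% in these data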;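 note: 0% = plate neutral control median and 100% = total signal loss; the record names both 10 and 1 µM as test concentration; the first replicate is given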
Target sequence (P42568 whole entry, looked up): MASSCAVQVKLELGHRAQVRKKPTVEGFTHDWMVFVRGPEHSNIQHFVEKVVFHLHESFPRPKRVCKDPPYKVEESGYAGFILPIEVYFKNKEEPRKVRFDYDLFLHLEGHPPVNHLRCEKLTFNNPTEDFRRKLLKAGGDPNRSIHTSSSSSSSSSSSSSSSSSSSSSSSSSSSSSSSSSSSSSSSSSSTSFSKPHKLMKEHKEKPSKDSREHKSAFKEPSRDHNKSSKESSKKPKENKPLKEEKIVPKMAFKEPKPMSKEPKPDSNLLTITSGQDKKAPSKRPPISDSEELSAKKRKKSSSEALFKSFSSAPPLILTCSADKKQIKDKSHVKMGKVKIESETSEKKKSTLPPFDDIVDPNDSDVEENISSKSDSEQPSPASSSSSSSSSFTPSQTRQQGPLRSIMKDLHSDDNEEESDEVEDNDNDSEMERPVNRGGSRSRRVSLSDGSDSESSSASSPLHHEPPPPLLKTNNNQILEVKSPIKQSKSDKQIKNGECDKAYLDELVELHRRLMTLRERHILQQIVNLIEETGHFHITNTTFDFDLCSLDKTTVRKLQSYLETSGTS
rRNA inh HTS – inhibitors of bacterial rRNA selective over humanized ribosomes | E. coli WT GFP vs humanized-ribosome RFP mutants, fluorescence, 24 h; active compounds read low; DMSO median 0, no signal -100 | GFP signal change (wild-type ribosome), % (no concentration beside the values) | actives 1.6% (n = 350,000) | AID 720706;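 active = significant combined selectivity score with lowered wild-type GFP, culture density cut under 30%, mutant RFP and density less affected; inactive = any of these conditions unmet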; note: one replicate is shown; some compounds called inactive have numbers as strong as hits
rRNA inh HTS OD600 – recorded beside rRNA inh HTS, whose call it bears; OD600 change, %; measured here: OD600 growth;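 optical density of the mix in the first replicate; 0 = DMSO median and -100 = no signal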
rRNA inh HTS RFP – second read-out of rRNA inh HTS, no call of its own (marks repeat the call); RFP signal change, %; measured here: RFP humanized mutant strains;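 first replicate; 0 = DMSO median and -100 = no signal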
Starred values were filed as active, the others as inactive; i = inactive; / = no result given. Not all compounds are listed (hit frequency here may not be typical).

The opening five compounds, to show the layout:
Values in the order: Ecoli growth	A1 inh	Beta apoptosis	T cruzi inh	UCH37 DUB inh	FGF22 binding	MLL AF4-AF9 inh	rRNA inh HTS	rRNA inh HTS OD600	rRNA inh HTS RFP
COCCN(CCOC)Cc1c(O)ccc2c1O/C(=C\c1ccco1)C2=O
→ /	1.3	-4.5	-5.3	/	i	2.4	19.2	23.1	7.4
COc1cccc(NC(=O)CN(C)C(=O)c2ccc(-c3ccc(Cl)cc3)o2)c1
→ 0.684	0.7	-0.7	-10.7	0.3	i	-11.5	-8.7	-33.2	6.0
Cc1ccc(S(=O)(=O)NC(=O)NCc2ccc3c(c2)OCO3)cc1
→ 0.712	-0.6	-4.9	-8.9	-0.7	/	/	/	/	/
CCOC(=O)c1cc(C(=O)NN)c(C)nc1C
→ 0.679	-0.1	0.5	-14.7	2.6	i	-1.6	15.0	18.1	-2.8
O=C(COc1ccccc1)N(Cc1ccco1)c1ccc(O)cc1
→ 0.707	-1.4	/	-5.4	1.7	/	/	/	/	/

The list itself, from the first entry:
Values in the order: Ecoli growth	A1 inh	Beta apoptosis	T cruzi inh	UCH37 DUB inh	FGF22 binding	MLL AF4-AF9 inh	rRNA inh HTS	rRNA inh HTS OD600	rRNA inh HTS RFP
COCCN(CCOC)Cc1c(O)ccc2c1O/C(=C\c1ccco1)C2=O
→ /	1.3	-4.5	-5.3	/	i	2.4	19.2	23.1	7.4
COc1cccc(NC(=O)CN(C)C(=O)c2ccc(-c3ccc(Cl)cc3)o2)c1
→ 0.684	0.7	-0.7	-10.7	0.3	i	-11.5	-8.7	-33.2	6.0
Cc1ccc(S(=O)(=O)NC(=O)NCc2ccc3c(c2)OCO3)cc1
→ 0.712	-0.6	-4.9	-8.9	-0.7	/	/	/	/	/
CCOC(=O)c1cc(C(=O)NN)c(C)nc1C
→ 0.679	-0.1	0.5	-14.7	2.6	i	-1.6	15.0	18.1	-2.8
O=C(COc1ccccc1)N(Cc1ccco1)c1ccc(O)cc1
→ 0.707	-1.4	/	-5.4	1.7	/	/	/	/	/
O=C(c1ccccc1F)N1CCN=C1SCc1cccnc1
→ /	1.6	/	-1.2	/	i	-0.7	-0.7	6.9	-2.6
CCN(CC)CCC(c1ccc(OC)cc1)c1c(O)cc(OC)cc1OC (centres undefined)
→ 0.682	2.5	-5.2	0.3	0.6	i	7.4	1.5	0.5	-2.3
CCc1nnc(NC(=O)CSc2nnc(-c3c[nH]c4ccccc34)n2C)s1
→ 0.707	0.9	0.3	-5.9	2.3	/	/	/	/	/
Nc1cc(=O)[nH]c(SCc2cccc3ccccc23)n1
→ 0.665	1.3	-0.7	37.0	3.1	i	1.1	-5.7	-11.6	-9.3
O=C(N/N=C/c1cccnc1)c1cc2ccccc2o1
→ /	0.6	-5.0	5.8	/	i	0.1	-4.6	27.4	10.0

The closing two entries of the part above open the next one.
Values in the order: Ecoli growth	A1 inh	Beta apoptosis	T cruzi inh	UCH37 DUB inh	FGF22 binding	MLL AF4-AF9 inh	rRNA inh HTS	rRNA inh HTS OD600	rRNA inh HTS RFP
Nc1cc(=O)[nH]c(SCc2cccc3ccccc23)n1
→ 0.665	1.3	-0.7	37.0	3.1	i	1.1	-5.7	-11.6	-9.3
O=C(N/N=C/c1cccnc1)c1cc2ccccc2o1
→ /	0.6	-5.0	5.8	/	i	0.1	-4.6	27.4	10.0
CN(Cc1ccccc1N1CCCC1)C(=O)c1cc2cc(Cl)ccc2o1
→ 0.677	0.2	-4.9	/	-1.3	i	9.6	-19.1	-26.9	1.2
CCOc1cc2c(cc1/C=C1/NC(=O)N(CC(=O)OC)C1=O)OCO2
→ 0.733	1.2	/	-13.1	-61.2	i	0.2	3.2	14.3	7.2
Cc1nc(C)c(-c2ccc(SCC(=O)Nc3cccc(F)c3)nn2)s1
→ 0.714	0.8	-2.4	15.1	1.7	i	0.9	9.1	4.8	3.6
C=CCC1NS(=O)(=O)OCC1C(C)C (centres undefined)
→ /	-0.7	/	-12.5	2.1	i	1.8	8.8	17.6	6.9
O=C(Nc1ccncc1)C1c2ccccc2Oc2ccccc21
→ 0.72	0.4	-10.3	11.2	3.6	/	/	/	/	/
CC1CCN(C(=S)Nc2ccc(SC(F)F)cc2)CC1
→ 0.661	1.0	-6.7	-17.0	3.5	/	/	/	/	/
Cc1ccc(S(=O)(=O)CC(=O)N2CCCCCC2)cc1
→ 0.674	1.4	-3.3	-2.6	0.4	/	/	/	/	/
COc1ccc(-c2nc(NC3=NCCCCC3)sc2C)cc1
→ 0.673	0.0	-3.6	1.6	-0.3	i	6.6	-39.6	-51.2	-12.6
COc1ccc(C(=O)c2ccc(N3CCN(C(=O)c4ccc(F)cc4)CC3)c(F)c2)cc1Br
→ 0.726	-0.1	13.9	61.3*	4.0	/	/	/	/	/
Cc1cc(Oc2ccccc2)nc(SCC(=O)Nc2ccc(Cl)c(Cl)c2)n1
→ 0.733	0.1	-7.3	3.5	2.3	/	/	/	/	/
CC1=NNC(=O)C1Cc1ccccc1 (centres undefined)
→ 0.7	0.4	-4.7	2.7	2.9	i	-4.1	0.6	6.9	-0.8
CC(NC(=O)Nc1ccccc1)c1ccccc1 (centres undefined)
→ 0.689	-1.9	1.8	2.8	0.9	/	/	/	/	/
Cc1ccc(C(=O)NC2CCCCCC2)cc1S(=O)(=O)N1CCOCC1
→ 0.654	0.8	2.1	1.9	2.3	i	-1.8	8.4	9.4	1.0
Cc1ncsc1CCC(=O)N1CCCC(Nc2ccc(C(C)C)cc2)C1 (centres undefined)
→ 0.711	-0.3	-3.6	1.1	0.1	i	7.2	-3.5	-14.4	-3.7
CCOC(=O)Cn1nc(C)c(NC(=O)CCc2ccccc2)c1C
→ 0.713	0.0	1.8	-4.8	6.4	i	-1.2	11.5	8.3	-3.7
CSc1cccc(NS(=O)(=O)c2ccc(F)cc2)c1
→ 0.702	-1.0	/	-6.7	4.1	/	/	/	/	/
CC(C)(C)NC(=O)c1cccc(NC(=O)c2cccc(O)c2)c1
→ 0.66	-0.9	-3.0	-5.5	1.0	i	0.2	-0.5	-1.8	-1.5
N#Cc1ccc(Cl)cc1NC(=O)CSc1nc2nc(-c3cccs3)cc(C(F)(F)F)c2c(=O)[nH]1
→ 0.702	-1.0	-0.4	-3.5	-60.0	/	/	/	/	/
CC(C)CN(CCNC(=O)c1cn(C)c2ccc(S(=O)(=O)N3CCCC3)cc2c1=O)CC(C)C
→ 0.71	-0.7	-3.6	0.0	3.0	i	-0.5	-4.5	3.7	-1.2
O=C(Nc1cccc(NC(=O)c2ccccc2[N+](=O)[O-])c1)c1ccccc1Cl
→ 0.68	-0.1	/	1.6	0.8	i	0.9	-9.5	-6.1	-2.4

An excerpt from above in order of their number in UCH37 DUB inh, descending:
SMILES | UCH37 DUB inh
O=C(Nc1cccc(NC(=O)c2ccccc2[N+](=O)[O-])c1)c1ccccc1Cl | 0.8
Cc1ccc(S(=O)(=O)CC(=O)N2CCCCCC2)cc1 | 0.4
N#Cc1ccc(Cl)cc1NC(=O)CSc1nc2nc(-c3cccs3)cc(C(F)(F)F)c2c(=O)[nH]1 | -60.0

Screening results (PubChem BioAssay)
